Sfp inh: Sfp phosphopantetheinyl transferase inhibition | Biochemical Sfp PPTase activity, qHTS | Potency, µM, for inactives: max response, negative = inhibition, most hits filed as inhibitors | 310,000 compounds, 3.5% hits; active = well fitted inhibition curve with a large enough effect; inconclusive = small, poorly fitted or top-dose-only effect, or another doubt; inactive = no such curve, though single readings can be large or run the other way;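 note: the enzyme is Sfp with the accession as filed and its product quenches rhodamine fluorescence; potency is the fitted concentration of half-maximal effect; 0% = enzyme reaction without inhibitor and -100% = no enzyme wells; top concentration of the series not given in the record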
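Reaction rates are the 30-min fluorescence difference (ex 525, em 598 nm) in wells containing 15 nM Sfp, 5 uM rhodamine-CoA and 12.5 uM BHQ-2-YbbR at pH 7.6 with 10 mM MgCl2.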
Menin-MLL FL inh: displaces fluorescein MLL peptide from human menin | Fluorescence polarization, fluorescein-MLL peptide displacement from menin | FP activity change, % at 61.4 µM | 290,000 tested, under 10 active | AID 1766; inconclusive = falling polarisation curve, or a change in total fluorescence; inactive = total fluorescence flat and polarisation flat or rising; no compound was filed as active; the % refers to the polarisation; negative = inhibition;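 note: % of control where 0% means no effect; inhibitors lower the polarisation; unlabelled MLL peptide was the positive control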
gsp ag: gsp mutant agonism. gsp mutant cells, cAMP HTRF, 30 min; control for the full effect not named in the record. Potency, µM (top dose mostly 76.9 µM), for the others: at the top dose activation (cAMP increase), hits mostly activators. 340,000 compounds, 0.13% hits. AID 624287; active = well fitted activation curve with a large enough effect; inconclusive = small, poorly fitted or top-dose-only effect, or another doubt; inactive = no such curve, though single readings can be large or run the other way; cell line not stated here;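 note: phosphodiesterase inhibitor Ro 20-1724 added with compounds to block cAMP breakdown; potency is the fitted concentration of half-maximal effect; nearly all actives have a fitted effect of over 60% in size; about a fifth of the inactives were tested at one dose only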
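Cells stably selected in G418 were plated at 2000/well, grown 16-24 hr, then given compounds in DMSO with the PDE inhibitor […] (300 uM solution added) for 30 min at 37C; cAMP was read by HTRF.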
TRPML1 inh: blocks the human TRPML1 channel; Q9GZU1; TRPML1-inducible cells, Ca2+ dye fluorescence, FDSS; stronger effect = lower value; inhibition of EC80 agonist-evoked calcium signal; activity change, negative = inhibition, % (test concentration not listed); 390,000 compounds, 0.02% hits; in the data active means activity change below about -50%; inconclusive means about -30% to -50%; inactive means above about -30%;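 note: stimulus is agonist 54-4 at its EC80 concentration; % is set by controls: 0 for no effect and ±100 for the full control effect; compound concentration not given in the record; the text of the record puts the active cut at -80%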
Target sequence (Q9GZU1 whole entry, looked up): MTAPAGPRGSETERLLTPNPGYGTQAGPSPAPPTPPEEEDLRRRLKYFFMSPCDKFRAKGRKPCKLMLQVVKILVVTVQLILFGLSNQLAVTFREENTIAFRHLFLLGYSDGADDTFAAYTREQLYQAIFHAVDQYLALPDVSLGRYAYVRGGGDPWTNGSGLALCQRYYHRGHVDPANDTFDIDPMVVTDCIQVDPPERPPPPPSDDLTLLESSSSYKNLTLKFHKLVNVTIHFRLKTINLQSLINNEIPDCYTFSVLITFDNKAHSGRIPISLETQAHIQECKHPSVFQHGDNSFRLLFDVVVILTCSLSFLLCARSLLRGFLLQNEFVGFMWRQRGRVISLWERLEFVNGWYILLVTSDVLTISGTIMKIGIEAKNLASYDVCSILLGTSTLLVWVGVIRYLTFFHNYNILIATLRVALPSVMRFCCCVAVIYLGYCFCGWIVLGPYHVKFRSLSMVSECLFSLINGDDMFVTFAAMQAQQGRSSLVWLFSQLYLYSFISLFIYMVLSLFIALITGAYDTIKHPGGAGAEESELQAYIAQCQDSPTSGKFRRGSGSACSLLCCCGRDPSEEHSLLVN
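TRPML1-DL cells, Tet-induced overnight (~16 h, 37 °C) at 1,500 cells/well, were loaded with Ca8 no-wash dye plus quencher for 45-90 min at room temperature. Compounds were pinned during FDSS kinetic reading; agonist 54-4 at EC80 (4 uM final) then added.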
ClpP mod: qHTS Assay for Activators of ClpP. ATP-dependent Clp protease proteolytic subunit (Bacillus subtilis (strain 168)), P80244. purified B. subtilis ClpP, FRET peptide cleavage, 20 min. Potency, µM (highest dose often 57.5 µM), for the others: top-dose activity change, negative = active. 340,000 compounds, 1.9% hits. AID 651965, 2013; active = well fitted falling curve with a large enough effect; inconclusive = small, poorly fitted or top-dose-only effect; inactive = no such curve, though single readings can be large or run the other way; note: potency is the fitted concentration of half-maximal effect; the source files actives as falling curves though it sought activators and does not explain the sign; nearly all actives have a fitted effect of over 65% in size; many hits overshoot -100%
Target sequence (P80244 whole entry, looked up): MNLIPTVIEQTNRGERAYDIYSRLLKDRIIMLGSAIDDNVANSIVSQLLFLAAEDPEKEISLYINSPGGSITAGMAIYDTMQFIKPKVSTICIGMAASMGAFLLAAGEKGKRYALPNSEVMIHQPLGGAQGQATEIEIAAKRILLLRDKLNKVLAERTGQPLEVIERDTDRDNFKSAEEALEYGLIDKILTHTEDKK
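Purified B. subtilis ClpP, 10 microg/mL final in Tris/HCl pH8 with KCl, BSA, glycerol and Tween-20, cleaved an Abz/nitrotyrosine-quenched decapeptide. Fluorescence (ex 320, em 430) was read at 0 and 20 min at room temperature. Delta was normalized to 5.8 microM ADEP and DMSO/no-enzyme controls.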
TRPV1 PAM: human TRPV1 potentiation. 320,000 compounds, 0.02% hits. potentiation, % at 8.33 µM. AID 540277. TRPV1-expressing cells, Fluo-8 calcium influx, capsaicin EC20 potentiation; host cell line not named in the record; control for the full effect not named in the record. Q8NER1; active means potentiation above 80%; inconclusive means 30% to 80%; inactive means below 30%; note: 0% is about no effect
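TRPV1-expressing cells were cultured overnight at 35.5C and loaded with Fluo-8 calcium dye for 40 to 90 min at room temperature. After a 10 s baseline, compound was added and calcium influx was read kinetically for 3 min (ex 480/em 520 nm).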
gsp antag: gsp mutant antagonism | gsp-mutant cells, cAMP HTRF, 30 min; control for the full effect not named in the record | Potency, µM (highest dose often 76.9 µM), inactives show at the top dose activity change, negative = inhibition, usual class: inhibitors | 340,000 compounds, 0.4% hits; active = falling curve of any shape with a large fitted effect; inconclusive = falling curve, mostly with a smaller effect; inactive = flat or rising curve; cell line not stated here;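 note: intracellular cAMP measured with PDE inhibitor Ro 20-1724 present during compound exposure; potency is the fitted concentration of half-maximal effect; % is set by controls: 0 for no effect and ±100 for the full control effect; nearly all actives have a fitted effect of over 65% in size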
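Cells in G418 medium, seeded 16-24 h, 37C; buffer exchange to DPBS + 1 mM CaCl2, 0.5 mM MgCl2, 0.05% BSA; cpds in DMSO + […] (300 uM stock), 30 min 37C; HTRF cAMP detection.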
* marks the source's active call; other numbers are inactive results; ? = inconclusive; . = not tested or not shown; [ ] = dose if it differs, or a comment.

SMILES	Sfp inh	Menin-MLL FL inh	gsp ag	TRPML1 inh	ClpP mod	TRPV1 PAM	gsp antag
O=C(c1ccco1)N1CCN(C2c3ccccc3-c3ccccc32)CC1	-5.1%	-2.6	-1.3%[15.4 µM]	-10.4	0.1%	-8.6	-20.3%
COc1ccc(C(=O)Nc2ncc3c(n2)CC(C)CC3=O)cc1 (stereo not given)	22.2%	-5.9	29.5%	3.3	.	-12.8	-3.6%
O=C(CSc1nnc(Cc2ccccc2)n1-c1ccc(Cl)cc1)N1CCOCC1	-3.7%	2.3	-47.4%[inhibitor]	-18.2	-1.9%	-7.2	0.4%
CCN(C(=O)c1ccc(S(=O)(=O)N2CCCCC2)cc1)C1CCS(=O)(=O)C1 (stereo not given)	.	.	27.4%	12.7	-22.5%	7.6	5.6%
CCC(Sc1nc(C)cc(=O)[nH]1)C(=O)Nc1sc2c(c1C#N)CCCC2 (stereo not given)	-1.6%	2.9	-54.7%	-7.0	0.1%	19.4	-24.1%
COCCOc1ccc(C(F)(F)F)cc1NC(=O)COC(=O)c1ccc(N2CCCC2=O)cc1	.	.	3.0%[15.4 µM]	0.9	1.1%	.	-4.9%
O=C(C[n+]1cccc(NC(=O)c2ccccc2)c1)c1ccccc1	14.2%	3.4	-2.0%	10.0	-0.5%	-1.5	-2.4%
O=C(NCCC1=CCCCC1)C1CC(=O)N(Cc2ccccc2)C1 (stereo not given)	9.8%	-5.3	-11.1%	2.7	0.4%	1.2	11.9%
CCC(=O)c1ccc(OCC(=O)Nc2nc(-c3cccnc3)cs2)cc1	.	.	7.1%[15.4 µM]	15.7	31.6µM*	0.6	-17.6%
COc1ccc(C(=O)Nc2ccc(S(=O)(=O)NCc3ccco3)cc2)cc1OC	-6.7%	-0.4	-1.9%	-24.1	1.0%	7.1	6.4%
COc1ccc(S(=O)(=O)N2CCOCC2)cc1NC(=O)COC(=O)c1ccc([N+](=O)[O-])s1	.	.	-19.4%	12.9	-1.7%	.	-7.1%
Cc1ccc(S(=O)(=O)NCCC(=O)OCC(=O)N2CCCC2=O)cc1	.	.	3.9%[15.4 µM]	-8.6	-1.4%	2.1	-3.1%
Cc1ccc(S(=O)(=O)c2ccc(-n3nc(C)cc3N)cc2)cc1	20.4%	1.4	-39.5%[inhibitor]	-14.6	.	?	-2.7%
CCCCCCCCCC(=O)Nc1cccnc1	17.0%	1.0	.	.	.	-9.0	.
CC1CN(C(=O)c2cc3cc([N+](=O)[O-])ccc3oc2=O)CC(C)O1 (stereo not given)	14.3%	2.8	32.2%[15.4 µM]	7.9	.	2.8	6.2%
COc1ccc(-c2cc(C(F)F)n3ncc(C(=O)Nc4ccc(C(=O)N5CCOCC5)cc4)c3n2)cc1	18.5%	-0.5	-8.9%	22.2	-9.8%	-6.8	-39.8%
O=C(NCC1CCCO1)c1cc2ccccc2nc1Cl (stereo not given)	6.3%	-0.1	0.0%	0.9	-5.0%	9.4	7.5%
CC(=O)c1ccc(OCCCC(=O)N2CCN(S(=O)(=O)c3cc(C)ccc3C)CC2)cc1	.	.	-8.0%[15.4 µM]	26.1	-4.7%	-7.3	-19.9%
CCOC(=O)c1c(NC(=S)Nc2cc([N+](=O)[O-])ccc2OC)sc2c1CCCCC2	22.4µM*	-0.1	.	.	.	-1.9	.
COC(=O)c1cc(S(=O)(=O)Nc2cccc(C)c2C)cn1C	4.2%	-1.2	-6.0%	?	1.8%	5.0	3.4%
O=C(OC(C(=O)NC1CCCCC1)c1ccccn1)c1cccs1 (stereo not given)	9.4%	?	-5.3%	11.6	-2.2%	-10.8	-2.4%
COc1ccc(C(=O)Nc2ccc(C(=O)N3CCC(C)CC3)cc2)cc1OC	9.3%	0.3	9.3%[15.4 µM]	43.4	8.0%	17.1	-20.9%
COc1ccccc1N=Cc1c(C)c(C#N)c2[nH]c3ccccc3n2c1=O	-6.3%	?	-7.7%[15.4 µM]	7.5	.	-8.3	-28.2%
CCOC(=O)c1ccc(NC(=O)CCOc2ccc(C)cc2)cc1	16.1%	0.4	16.8%	-1.3	0.4%	-2.0	14.9%
O=C(c1ccc(CNc2c(NC3CCCCC3)c(=O)c2=O)cc1)N1CCc2ccccc21	-8.2%	0.6	-20.7%	-5.1	-0.5%	?	0.9%
CC(C)c1ccccc1-n1c(SCC(=O)c2ccc3c(c2)NC(=O)CO3)nc2ccccc2c1=O	5.9%	-1.1	-2.3%[15.4 µM]	6.5	.	8.2	?
Cc1cccc(CSC2=NCCN2C(=O)C2CC2)c1	2.5%	1.2	-9.9%	-6.8	0.2%	2.1	21.1%
CSc1nc(C)cc(SCCO)n1	10.2%	-0.4	-10.1%	-1.0	-1.3%	6.9	11.9%
CCc1cccc(NS(=O)(=O)c2ccc3c(c2)NC(=O)CC(=O)N3)c1	12.0%	2.2	7.2%	-12.2	-1.2%	0.1	10.6%
O=C(N=C1SC2CS(=O)(=O)CC2N1c1ccc(Cl)c(Cl)c1)C1CCCO1 (stereo not given)	8.3%	0.6	-11.0%	9.4	2.6%	3.5	7.4%
Cc1ccc(-c2noc(-c3ccccc3F)n2)cc1	12.5%	-0.4	7.8%[15.4 µM]	-10.2	.	8.5	1.8%
O=C(NCCN1CCOCC1)C(Sc1ccccc1)c1ccccc1 (stereo not given)	4.0%	0.4	3.1%[15.4 µM]	1.0	-1.8%	.	5.2%
COCCCNC(=S)NNC(=O)c1csc(C)n1	9.6%	1.7	-0.8%	35.1	1.4%	-4.3	5.3%
N=C1C(c2nc3ccccc3[nH]2)=C(O)CN1c1ccc(F)cc1	22.3%	3.3	-13.0%	32.4	?	-13.6	-5.2%
COC(=O)c1ccc(NS(=O)(=O)c2ccc3[nH]c(=O)oc3c2)cc1	6.6%	-0.5	22.0%[15.4 µM]	19.9	.	2.9	-6.7%
COc1ccc(OC)c(CNC(=O)C2CCN(S(=O)(=O)N3CCCC3)CC2)c1	15.5%	1.7	-55.5%[inhibitor]	-8.8	0.4%	8.8	2.0%
COc1cc(C(=O)COC(=O)c2cccs2)cc(OC)c1OC	.	.	16.3%[15.4 µM]	-4.1	-0.2%	.	-2.6%
COC(=O)c1cc(C(=O)OCC(=O)NC2CCCC2)cc([N+](=O)[O-])c1	23.0%	-0.2	2.6%	-13.3	0.9%	3.4	-3.6%
O=C(COc1ccc(Cl)cc1Cl)Nc1nnc(C2=COCCO2)o1	11.9%	-5.2	-19.4%	1.2	.	2.3	-17.5%
COc1ccc(NC(=O)n2ncc3c(C)cccc32)cc1OC	-11.7%	-14.8	0.4%	8.0	-2.8%	3.2	-10.1%
N/C(=N\OC(=O)c1cccc(F)c1)c1ccccn1	1.3%	.	-1.1%	-10.9	-2.6%	-1.2	7.5%
COc1ccccc1C(=O)NCCC(=O)N(C)Cc1ccc(C)o1	18.1%	.	-28.4%	5.5	-0.9%	2.6	-6.6%
O=C(CCCn1c(=O)c2ccccc2n(Cc2cccc(F)c2)c1=O)NC1CCN(Cc2ccccc2)CC1	4.4%	20.4	.	.	.	-6.0	.
COc1ccc(OC)c(COC(=O)c2cc([N+](=O)[O-])ccc2N2CCOCC2)c1	.	.	-12.9%	-11.6	0.8%	-1.1	-29.5%
O=c1cc(-c2ccc(O)cc2)oc2ccc3ccccc3c12	.	.	?	2.1	-16.0%	-17.8	?
CCN1/C(=C/C=C/C=C/c2sc3ccccc3[n+]2CC)Sc2ccccc21	44.7µM*	?	.	.	-2.3%	29.0	.
COc1ccc(NC(=O)c2cc(S(=O)(=O)N3CCCCC3)c[nH]2)c(OC)c1	9.7%	-2.3	15.0%	4.2	1.0%	-5.4	4.2%
COc1ccc(NC(=O)CN(C)CC(=O)NCc2ccc(C)cc2)cc1	.	.	-2.1%	13.9	-3.3%	6.9	4.5%
CC(=O)Nc1ccc(NC(=O)CSC2=NS(=O)(=O)c3ccccc3N2)cc1	.	.	10.2%[15.4 µM]	-4.0	.	-24.1	10.7%
COc1cc(OC)cc(C(=O)NCC(=O)OC2CCCCC2=O)c1 (stereo not given)	.	.	7.1%	7.2	-10.9%	-0.5	-2.3%
O=C(Nc1ccc2c(c1)OCCO2)c1c[nH]c(=O)n(-c2ccc(F)c(Cl)c2)c1=O	-27.5%	.	?	1.6	-2.1%	5.2	-19.3%
CC1CCC(NC(=O)CN2CCCN(Cc3ccc(F)cc3Cl)C2=O)CC1 (stereo not given)	16.4%	-2.3	-6.3%	29.9	0.9%	0.7	-28.3%
CCCCNc1ccccc1C(=O)OCC(=O)Nc1ccc(S(N)(=O)=O)cc1	19.7%	-0.2	-37.9%	5.2	28.2µM*	-5.8	21.1%
COc1ccc(CCNC(=O)CCn2c(=O)oc3ccccc32)cc1	13.2%	2.4	-31.1%[inhibitor]	6.5	-1.0%	-2.7	8.2%
CC(=O)Nn1c(C)nnc1-n1nc(C)cc1C	11.8%	-2.0	-2.7%	1.7	-0.8%	0.4	-0.1%
Cc1nc([N+](=O)[O-])cn1CC(O)c1ccc(F)cc1 (stereo not given)	22.9%	1.2	19.9%[15.4 µM]	4.9	.	-7.8	7.0%
O=C(NCCCc1nc2ccccc2[nH]1)c1ccc(F)cc1	18.0%	0.4	6.4%[15.4 µM]	-23.7	.	-5.4	-5.6%
COc1ccc(-c2sc3ccc(OC)cc3c2C#Cc2ccccn2)cc1	.	.	.	29.1	3.7%	-2.0	28.2µM*
CCC(NC(=O)c1cncc(Br)c1)c1ccccc1 (stereo not given)	.	.	16.3%	-1.9	0.6%	.	5.6%
COc1cc(OC)nc(Oc2ccccc2C=O)n1	.	.	7.2%	26.0	.	.	1.6%
COc1ccccc1NS(=O)(=O)c1cc(NC(=O)CNC(=O)c2ccc(C)s2)ccc1Cl	-0.7%	1.9	-3.0%	-5.8	1.3%	3.1	-29.9%
CC(C)CCNC(=O)c1ccc(Cl)c(NC(=O)c2ccccc2F)c1	-5.5%	-2.2	.	.	.	-7.9	.

Screening results deposited in PubChem BioAssay by National Center for Advancing Translational Sciences (NCATS).

No enrichment for hits (roughly 4.9% active in at least one column).
